# Sa helicase inh – inhibitors of S. aureus replicative helicase, primary screen, biochemical, fluorescence unwinding readout; replicative DNA helicase (DnaC/DnaB), Staphylococcus aureus; purified S. aureus helicase, fluorescence unwinding assay; about half of the hits fall short of the stated cut; inhibition, %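 (tested at about 80 µM)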; 120,000 compounds, 0.05% hits; AID 485395, 2010;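 active = both duplicates at 50% or more, or one of them with a favoured structure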;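 note: 0% = mean of negative control wells and 100% = mean of positive control wells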
# MgrA DNA FP – S. aureus MgrA activity modulators, primary screen, biochemical, S. aureus Newman, fluorescence polarization; MgrA-DNA binding; inhibition, %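 (about 10 µg/mL by stock and volumes)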; 84,000 compounds, 0.13% hits; AID 602314, 2012;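 active = above 50% in either of two replicates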;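 note: 0% = protein plus DNA without compound and 100% = DNA alone without protein; higher means less MgrA bound to DNA so lower polarization; one replicate is shown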
# * marks the source's active call; other numbers are inactive results; . = not tested or not shown; & = joins results of further samples. Some of the compounds tested. The share of hits here may be higher or lower than overall.
# The first 3 records, to show the layout:
# Screens in order – Sa helicase inh	MgrA DNA FP
COc1ccccc1C(=O)n1nc(C)cc1C
  8	3.2
COC(=O)C1=C(C)NC2=C(C(=O)CC(c3ccccc3)C2)C1c1ccccc1OC(C)C (stereo unspecified)
  4	-1.5
CC(C)C[C@H](NC(=O)OCC1c2ccccc2-c2ccccc21)C(=O)O
  .	-1.5

# Main list, repeating the preview:
# Screens in order – Sa helicase inh	MgrA DNA FP
COc1ccccc1C(=O)n1nc(C)cc1C
  8	3.2
COC(=O)C1=C(C)NC2=C(C(=O)CC(c3ccccc3)C2)C1c1ccccc1OC(C)C (stereo unspecified)
  4	-1.5
CC(C)C[C@H](NC(=O)OCC1c2ccccc2-c2ccccc21)C(=O)O
  .	-1.5
COc1cccc(C=NC2CCN(Cc3ccccc3)CC2)c1OC
  .	-1.8
CCOc1ccc(OCC(=O)NCCc2nc3ccccc3[nH]2)cc1
  1	0.2
CCN(CC)C1=C(C(=O)c2ccccc2)NS(=O)(=O)c2ccccc21
  12	-2.0
Cc1cccc(NC2=NC3CS(=O)(=O)CC3S2)c1 (stereo unspecified)
  3	.
CC[n+]1c(C)oc2ccc(OC)cc21
  8	4.6
CSc1cccc(N2C(=O)CSC2=O)c1
  .	-0.9
NS(=O)(=O)c1ccc(CCNC2CC(=O)N(Cc3cccs3)C2=O)cc1 (stereo unspecified)
  23	-6.6
CC(/C=C/c1ccccc1)=N\O
  .	-1.8
Cc1[nH]c(=S)n(CC2CCCO2)c1C (stereo unspecified)
  1	.
NC(=O)C1CCN(C(=O)c2ccco2)CC1
  11	4.3
CCCCNC(=O)c1ccccc1NC(=O)CC
  1	-3.2
COc1ccc2oc(=O)c(C(=O)NC(C)(C)C)cc2c1
  -7	-4.5
O=C(Nc1nc2ccc(Cl)cc2s1)c1ccc(S(=O)(=O)N2CCCCC2)cc1
  -15	.
N#CC1=C(N)OC(N)=C(C#N)C1c1cc(Br)cs1
  -15	0.8
COC(=O)c1ccc(OCC(=O)NCC(F)(F)F)cc1
  17	.
O=c1ncn(-c2ncc(C(F)(F)F)cc2Cl)[nH]1
  .	0.6
CN(NS(=O)(=O)c1ccc(Cl)c(Cl)c1)c1cccc(F)c1C#N
  .	-1.6

# Continued.
# Screens in order – Sa helicase inh	MgrA DNA FP
O=C(Oc1ccccc1OC(=O)C1C2CCCCC21)C1C2CCCCC21 (stereo unspecified)
  -6	-1.9
CC(=O)Oc1ccc(C(=O)N(Cc2nc(-c3cccc(C)c3)no2)C(C)C)cc1
  -20	.
Cc1ccc(C=Nc2cc(Cl)ccc2O)o1
  -22	1.8
O=C(NCCc1ccccc1)C1CCC(CNS(=O)(=O)c2cccc3cccnc23)CC1 (stereo unspecified)
  12	.
CCN(CCO)c1nc(NC2CCCCC2)c2cnn(C)c2n1
  12	.
Cc1cc(C)nc(SC(C(=O)c2ccccc2)c2ccccc2)n1 (stereo unspecified)
  -13	-1.9
Cc1cc(C(=O)O)c(CSCc2cc(C(=O)O)oc2C)o1
  18	-6.1
CC(Sc1nc2ccccc2c(=O)n1Cc1ccco1)C(=O)c1ccc(F)c(F)c1 (stereo unspecified)
  -9	.
FC(F)(F)Oc1ccc(N=Cc2ccc[nH]2)cc1
  -1	-2.8
COc1nc(-c2ccccc2Cl)c2cc(Br)ccc2n1
  2	-0.9
Cc1cccc(C=Nc2c(C)n(C)n(-c3ccccc3)c2=O)c1
  -1	-0.6
Cc1ccc(C)c(NC(=O)NCCCN2CCc3ccccc3C2)c1
  18	.
COC(=O)c1scc(C)c1NN1C(=O)c2ccccc2C1=O
  16	.
COc1ccc(Cl)cc1NC(=O)CSCC(=O)O
  .	-1.9
C=CCN1C(=O)/C(=C\c2ccccc2Cl)N=C1c1ccccc1
  .	-0.8
COc1cccc(/C=C2/SC(=Nc3ccccc3)N(CCc3ccccc3)C2=O)c1O
  -13	0.9
COC(=O)C(CC(C)C)NC(=O)c1ccccc1Cl (stereo unspecified)
  1	.
O=C(Cc1c[nH]c2ccccc12)N1CCN(c2ccccc2)CC1
  1	.
CCc1cc(SC(C)C(=O)c2c(N)n(C)c(=O)n(C)c2=O)n2c(nc3ccccc32)c1C#N (stereo unspecified)
  15	.
Cc1c(C(=O)N2CC(C)OC(C)C2)sc2nc(-c3ccccc3)cn12 (stereo unspecified)
  -17	.

# (further entries)
# Screens in order – Sa helicase inh	MgrA DNA FP
CCN(CC)C(=O)c1cc2c(n(-c3ccc(OC)cc3)c1=O)CC(C)(C)CC2=O
  2	-1.4
COCc1nnc(NC(=O)/C=C/c2ccc(OC)cc2)s1
  11	1.4
C1CCN2CC3CC(CN4CCCC[C@@H]34)C2C1 (stereo partly specified)
  21	.
CN(C)/C=N/NS(=O)(=O)c1ccccc1
  3	.
Cc1cc(NNC(=S)S)nc(N)n1
  -2	18
CCN(CC)S(=O)(=O)c1ccc(C(=O)NCCn2c(C)cc3ccccc32)cc1
  5	.
Cc1noc(C)c1C(=O)NCC(c1ccccc1)c1c[nH]c2ccccc12 (stereo unspecified)
  .	-1.5
CN1C=C(C(N)=O)C=C/C1=C(/C#N)c1nc2ccccc2s1
  12	.
CCn1nc(-c2ccccc2)cc1-n1cnc2ccccc21
  -11	-0.4
NC(=O)COc1ccc(-c2noc(COc3cccc(Cl)c3)n2)cc1
  14	.
O=C(Nc1ccc(-c2nc3ccc(NC(=O)C4CC4)cc3[nH]2)cc1)C1CC1
  21	-7.8
Cc1ccc(NC(=O)c2ccccc2[N+](=O)[O-])c([N+](=O)[O-])c1
  .	-0.1
CCCCn1cnc2c(cnn2-c2ccc(Cl)cc2)c1=O
  5	.
O=C(c1ccco1)c1cc2cc(Br)ccc2oc1=O
  14	1.3
O=C(NCc1csc(-c2cccs2)n1)c1cc(F)cc2c1OCOC2
  .	3.7
Cc1cc(OCC(=O)Oc2c(C)cc(Br)cc2Cl)no1
  15	.
CSc1nnc(-c2ccccc2O)n1-c1ccccc1
  -4	-0.2
C=CCn1c(=O)n(CCOC)c(=O)c2sc3ccccc3c21
  9	.
Cc1ccc(C(=O)OC[C@H]2O[C@H](c3nnc4ncccn34)C[C@@H]2OC(=O)c2ccc(C)cc2)cc1
  .	0.6
O=C(NCc1ccccc1)NC1(C(F)(F)F)Oc2ccccc2O1
  10	0.1

# Additional entries
# Screens in order – Sa helicase inh	MgrA DNA FP
COc1ccc(N2CCN(CCNC(=O)c3cc(-c4ccccn4)nc4ccccc34)CC2)cc1
  -4	.
Cc1ccc(S(=O)(=O)N(c2ccccc2)C2CC(C)Nc3ccccc32)cc1 (stereo unspecified)
  -1	-0.3
COc1ccc(CCC(=O)Nc2ccc(-c3noc(-c4ccccc4Br)n3)cc2)cc1
  11	6.0
O=C(COC(=O)c1ccc(N2C(=O)c3ccccc3C2=O)cc1)Nc1ccc(N2CCOCC2)cc1
  -1	.
C=CCc1ccccc1OCC(CN1CCCCC1)OC(C)=O (stereo unspecified)
  9	-4.8
N#C/C(=C\O)c1nc2ccccc2s1
  .	-1.0
Cc1ccc(N2CCN(C(=O)CN(c3ccc(C)cc3)S(=O)(=O)c3c(C)n[nH]c3C)CC2C)cc1 (stereo unspecified)
  2	0.9
O=S(=O)(Nc1cccc2ccccc12)c1cccc2nonc12
  .	-0.7
O=C1NC(=O)N(c2ccccc2)C(=O)/C1=C\c1ccc(C(=O)O)cc1
  -1	5.2
O=[N+]([O-])c1cccnc1Sc1cc(Cl)ccc1Cl
  .	1.9
NN/C(=N/S(=O)(=O)c1ccccc1)N1CCCC1
  .	1.7
COC(=O)C1C(=O)C2=C(CC1C)NC(=O)CC2c1ccccc1 (stereo unspecified)
  0	.
O=C(c1ccccc1)N(Cc1nc(-c2ccccc2)no1)C1CCCCC1
  0	-1.7
COc1cc([N+](=O)[O-])ccc1-c1ccc(/C=C2\C(=O)NC(=S)N(c3ccccc3)C2=O)o1
  .	0.9
Cc1ccc(S(=O)(=O)Nc2cccc3c(O)cccc23)cc1
  20	-0.8
COc1ccc2oc(=O)c(C(=O)NCc3ccc4c(c3)OCO4)cc2c1
  -23	.
O=c1[nH]c2cc3c(cc2[nH]c1=O)OCCO3
  -16	.
O=C(NCc1ccccn1)c1nnc(-c2cccc(Cl)c2)o1
  1	-0.9
Cc1sc(NC(=O)C(c2ccccc2)c2ccccc2)c(C(N)=O)c1C
  1	.
O=C(CS)Nc1ccccc1F
  -15	.

# The list continues:
# Screens in order – Sa helicase inh	MgrA DNA FP
O=C(NCc1ccccc1)c1c[nH]c2ccc(S(=O)(=O)Nc3ccccc3F)cc2c1=O
  15	.
COc1ccccc1NC(=O)CC(=O)Nc1ccccc1OC
  14	0.3
CSc1nc(-c2ccccc2)nc(SC)c1C#N
  .	-1.6
COc1cccc(C(=O)Nc2nnc(CCS(=O)(=O)c3ccc4ccccc4c3)s2)c1
  .	-1.3
CCOC(=O)c1cc(C(N)=S)c(C)nc1C(F)(F)F
  .	3.9
Cc1nnc(C)n1/N=C/C=C\c1ccco1
  4	7.0
COC(=O)C1=C(C)NC(=O)NC1c1cn(-c2ccccc2)nc1-c1ccc(F)cc1 (stereo unspecified)
  23	.
COC(=O)COc1ccc2c(c1)C(=O)c1cc(OCC(=O)OC)ccc1-2
  -2	.
CCNC(=O)CC1C(=O)N(c2ccccc2)C(=O)N1Cc1ccc(C)cc1 (stereo unspecified)
  -4	.
Oc1ccc(C2CC(c3ccccc3O)=Nc3ccccc3S2)cc1 (stereo unspecified)
  .	1.1
CC(C)CCNC(=O)C1CCN(C(=O)N(C)C)CC1
  -9	1.4
CCOc1ccc2c(c1)SC1=NS(=O)(=O)CCN12
  -10	.
CN(C)S(=O)(=O)c1cccc(C(=O)NC(C)(C)C)c1
  -12	-0.3
Cc1nnc(SCC(=O)N2CCCC2)s1
  9	.
Cc1nc2ccccc2c(=O)n1NC(=O)C1CCCCC1
  -2	1.8
CCC(=O)N1C2C=CC(C2)C1(C(F)(F)F)C(F)(F)F (stereo unspecified)
  .	2.3
CCOC(=O)c1sc(NC(C)=O)cc1C
  4	.
C/C=C(/C(=C/C)c1ccc(O)cc1)c1ccc(O)cc1
  .	1.1&-0.5
Cc1c2c(n3c(nc4ccccc43)c1C#N)SCC2
  -15	.
CCNC(=O)c1ncoc1-c1cccs1
  -2	.

# The results go on.
# Screens in order – Sa helicase inh	MgrA DNA FP
CN(C(=O)C1CC1)c1ccccc1C(=O)NCc1ccccc1
  4	0.3
O=C(Nc1ncc(C(O)(C(F)(F)F)C(F)(F)F)s1)c1ccccc1Cl
  9	.
Cc1ccc(C(=O)Cn2c(-c3ccccc3)noc2=O)cc1
  -5	0.2
O=C(OCc1ccccn1)C1CCCCN1S(=O)(=O)c1ccccc1 (stereo unspecified)
  -9	.
CCCn1c(N)c(C(=O)CSc2nnc(Nc3cccc(OC)c3)s2)c(=O)n(C)c1=O
  -6	.
COc1ccc(/C=N/n2c(=S)[nH]nc(C)c2=O)cc1
  19	4.6
CC1(C)CC(=O)C2=C(C1)NC(Nc1nc3ccccc3o1)=NC2c1ccccc1 (stereo unspecified)
  5	-1.4
CN(C)C(CNC(=O)Cc1n[nH]c(=O)c2ccccc12)c1cccs1 (stereo unspecified)
  -5	.
CCC(C(=O)OC)n1c(-c2ccccc2)nc2ccccc2c1=O (stereo unspecified)
  16	-1.9
Clc1ccc(-c2ccn[nH]2)c(Cl)c1
  .	1.2
c1ccc(C(c2nnnn2C2CCCC2)N2CCN(c3ccccc3)CC2)cc1 (stereo unspecified)
  -5	3.2
Cc1nc2cc(NC(=O)c3ccc(S(=O)(=O)N4CCCC4)cc3)ccc2s1
  .	4.5
O=C(c1cnc2cc3c(cc2c1)OCCO3)c1ccccc1O
  9	.
O=C(Oc1ccc2c(c1)OCO2)c1c(Cl)cccc1Cl
  9	-1.7
CCc1ccc(N2NC(=O)C(=C(C)C)C2=O)cc1
  8	3.9
CCSc1ncnc2c1oc1ccccc12
  17	.
O=C(OCCN1CCCCC1)c1cccc(F)c1
  -3	-0.9
CC(C)NCC(O)COc1ccc2ccccc2c1 (stereo unspecified)
  -14	.
COC(=O)c1sc(NC(=O)c2ccco2)c(C#N)c1C
  15	2.8
COC(=O)c1cc(-c2ccco2)nc2c1c(=O)n(C)c(=O)n2CC(C)C
  5	.

# The list goes on:
# Screens in order – Sa helicase inh	MgrA DNA FP
COc1ccc(C(=O)NC(=S)Nc2ccc3[nH]c(=O)[nH]c3c2)cc1OC
  -5	2.0
O=C(CSc1ncnc2ccccc12)NCC1CCCO1 (stereo unspecified)
  -23	.
Cc1cc(C)nc(/N=C(\N)N2CCc3ccccc32)n1
  11	0.9
CCn1nc(C(=O)Nc2ccc(S(=O)(=O)Nc3ncccn3)cc2)c2ccccc2c1=O
  -1	.
c1ccc(-n2nnnc2Sc2ncnc3ccccc23)cc1
  3	.
COc1ccc(CCNC(=O)CSc2ccc(-c3ccco3)nn2)cc1
  -4	.
O=c1ccc2cc(N=Cc3cc(Cl)cc(Cl)c3O)ccc2o1
  .	-0.3
CCOc1ccc(N=Nc2c(C)n[nH]c2C)cc1
  10	.

# Profiles, looked up by structure:
# COc1ccc(C(=O)NC(=S)Nc2ccc3[nH]c(=O)[nH]c3c2)cc1OC is entered as Sa helicase inh = -5; MgrA DNA FP = 2.0
# CCn1nc(C(=O)Nc2ccc(S(=O)(=O)Nc3ncccn3)cc2)c2ccccc2c1=O is entered as Sa helicase inh = -1; MgrA DNA FP = .
# CCOc1ccc(N=Nc2c(C)n[nH]c2C)cc1 is entered as Sa helicase inh = 10; MgrA DNA FP = .

# Ordered by number of heavy atoms (largest number first): some entries from above.
# Screens in order – Sa helicase inh	MgrA DNA FP
O=c1ccc2cc(N=Cc3cc(Cl)cc(Cl)c3O)ccc2o1
  .	-0.3
O=C(CSc1ncnc2ccccc12)NCC1CCCO1 (stereo unspecified)
  -23	.
Cc1cc(C)nc(/N=C(\N)N2CCc3ccccc32)n1
  11	0.9

# Assay outcomes from PubChem.
